Compound activity from PubChem BioAssay.
StopGo reporter = High Throughput Screening for Foot and Mouth Disease Virus Antivirals; Potency, µM (series often up to 57.9 µM), inactives show at the highest dose signal change, negative = less light; AID 1159524, 2015; human cells with a luciferase reporter of 2A StopGo recoding; control for the full effect not named in the record; 1.2% of 410,000 active; active = well fitted falling curve with a large enough effect; inconclusive = small, poorly fitted or top-dose-only effect; inactive = no such curve, though single readings can be large or run the other way; tested in HEK293T cells; also: % is scaled to controls: 0 for no effect and ±100 for the full control effect; nearly all actives have a fitted effect of over 45% in size; luciferase light after 4 h
NS1 inh = qHTS Assay for Inhibitors of Influenza NS1 Protein Function. S. cerevisiae slowed by influenza A NS1, growth recovery by OD600. Potency, µM (series often up to 46.1 µM), without a hit: at the top dose activity, positive = more growth. 0.4% of 270,000 active; active means well fitted rising curve with a large enough effect; inconclusive means small, poorly fitted or top-dose-only effect; inactive means no such curve, though single readings can be large or run the other way; also: nearly all actives have a fitted effect of over 50% in size
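In this qHTS, NS1 from influenza A is expressed in budding yeast, where it slows growth. Cells are switched from glucose to 2% galactose medium (pH 6.0, -URA), treated with compound, and growth recovery is read at OD600.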
RE007 growth inh = qHTS Assay for Inhibitors of the HIV-1 protein Vpr; 0.21% of 360,000 active; S. pombe RE007 Vpr strain, BacTiter-Glo ATP luminescence, 24 h; control for the full effect not named in the record; Potency, µM (highest dose often 92.2 µM), inactives show at the top dose activity change, negative = less growth; active = well fitted falling curve with a large enough effect; inconclusive = small, poorly fitted or top-dose-only effect; inactive = no such curve, though single readings can be large or run the other way;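 also: % is scaled to controls: 0 for no effect and ±100 for the full control effect; nearly all actives have a fitted effect of over 50% in size; the assay follows cell death caused by Vpr and the record does not say whether a fall means rescue or toxicity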
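Fission yeast RE007 carrying one integrated HIV-1 vpr copy, seeded at OD 0.01 in PMG+AL medium with 23 nL pinned compound. Grown 24 h at 30 degrees; viability read by BacTiter-Glo luminescence after 5 min.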
Marburg entry inh = qHTS for inhibitors of binding or entry into cells for Marburg Virus; 1.8% of 300,000 active; Potency, µM (doses to about 37.8 µM), for the others: at the top dose activity change, negative = inhibition, hits mostly inhibitors; Marburg virus pseudotyped entry inhibition, cell reporter; control for the full effect not named in the record; about a third of the inactives were read at about 46 µM; active = well fitted inhibition curve with a large enough effect; inconclusive = small, poorly fitted or top-dose-only effect, or effect the other way; inactive = flat fitted curve, though single readings scatter; tested in HEK293 cells; about a fifth of its hits are not listed in these tables; also: % is scaled to controls: 0 for no effect and ±100 for the full control effect; luciferase read-out
Cruzain noTriton = qHTS Assay for Promiscuous and Specific Inhibitors of Cruzain (without detergent); Cruzipain (Trypanosoma cruzi), P25779; purified cruzain, Z-FR-AMC fluorescence, no detergent; Potency, µM, for inactives: max response, negative = inhibition, actives largely listed as inhibitors; 2.3% of 200,000 active;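 also: plate controls were enzyme without inhibitor for no effect and buffer without enzyme for full effect; nearly all actives have a fitted effect of over 40% in size; top concentration of the series not given in the record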
Target sequence (P25779 123-467 limits assumed): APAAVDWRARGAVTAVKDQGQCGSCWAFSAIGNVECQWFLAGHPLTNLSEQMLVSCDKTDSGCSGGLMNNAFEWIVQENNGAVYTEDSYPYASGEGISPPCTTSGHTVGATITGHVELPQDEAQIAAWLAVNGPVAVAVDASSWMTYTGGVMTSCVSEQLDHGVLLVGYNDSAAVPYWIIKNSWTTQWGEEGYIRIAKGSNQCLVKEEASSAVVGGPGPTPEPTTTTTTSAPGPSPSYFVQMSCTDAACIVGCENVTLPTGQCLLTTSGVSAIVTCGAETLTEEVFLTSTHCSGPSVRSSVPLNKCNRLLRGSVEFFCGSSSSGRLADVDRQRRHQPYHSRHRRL
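Purified cruzain at 1.5 nM, pre-incubated 15 min with compound at room temperature in 100 mM sodium acetate pH 5.5, 5 mM DTT, 0.00005% Triton X-100. Reaction started with 2 uM Z-FR-AMC; AMC fluorescence increase over 60 s gives rate.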
Cruzain Triton = qHTS Assay for Promiscuous and Specific Inhibitors of Cruzain (with detergent). 0.43% of 200,000 active. purified cruzain, Z-FR-AMC fluorescence, 0.01% Triton. Potency, µM, for inactives: max response, negative = inhibition, usual class: inhibitors;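 also: plate controls were neutral wells for no effect and buffer without enzyme for full effect; nearly all actives have a fitted effect of over 40% in size; top concentration of the series not given in the record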
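Z-FR-AMC hydrolysis (2 uM substrate) by cruzain (1.5 nM) monitored kinetically at ex 360/em 450 nm after 15 min room-temperature compound exposure; 0.01% Triton X-100, pH 5.5, 5 mM DTT.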
SARS PLP yeast = qHTS of Yeast-based Assay for SARS-CoV PLP. S. cerevisiae expressing SARS-CoV PLpro, growth rescue; control for the full effect not named in the record. Potency, µM (doses to about 32.9 µM), inactives show at the top dose activity, positive = growth rescue. 0.19% of 330,000 active. AID 485353, 2010; active means well fitted rising curve with a large enough effect; inconclusive means small, poorly fitted or top-dose-only effect; inactive means no such curve, though single readings can be large or run the other way; also: 0% is about no effect; nearly all actives have a fitted effect of over 55% in size; growth read by luminescence after 48 h
Lassa entry inh = qHTS for Inhibitors of binding or entry into cells for Lassa Virus; AID 540256, 2011; Lassa virus pseudotype entry inhibition, cell reporter; control for the full effect not named in the record; 1.2% of 300,000 active; Potency, µM (top dose mostly 37.9 µM), without a hit: at the highest dose activity change, negative = inhibition, most hits filed as inhibitors; active means well fitted inhibition curve with a large enough effect; inconclusive means small, poorly fitted or top-dose-only effect, or effect the other way; inactive means flat fitted curve, though single readings scatter; tested in HEK293 cells; also: % is scaled to controls: 0 for no effect and ±100 for the full control effect; nearly all actives have a fitted effect of over 50% in size; luciferase read-out
* hit, by the source's call; ? = inconclusive; / = not tested or not shown; & = joins results of further samples; [ ] = remark or other dose. Unless noted, calls follow the shape of the dose curve; as a rule, active = well fitted curve in the direction sought with a large enough effect; inconclusive = small, poorly fitted or top-dose-only effect, or another doubt; inactive = no such curve, though single readings can be large; an effect the other way counts as inactive or inconclusive. Potency is read from the fitted curve at half-maximal effect.

Under each structure – StopGo reporter | NS1 inh | RE007 growth inh | Marburg entry inh | Cruzain noTriton | Cruzain Triton | SARS PLP yeast | Lassa entry inh
- Cc1cc(C)c(-c2c(O)c3cnn(-c4ccccc4)c3[nH]c2=O)c(C)c1
  0.1% | 8.3% | -9.9% | 3.3% | -2.5% | -3.7% | -0.4% | 1.8%
- O=C1CCCN1c1ccc(S(=O)(=O)NCCOc2ccccc2)cc1
  -27.7% | 6.6% | 3.2% | -14.2% | -4.2% | -0.4% | 18.1% | 16.7%
- O=C(Nc1ccnn1C1CCN(C(=O)c2cccc(Cl)c2)CC1)C1CC1
  15.6% | -4.3% | 1.7% | / | / | / | 9.5% | /
- Cc1oc(-c2ccccc2)cc1C(=O)Nc1ccc2ccccc2c1
  9.1% | -1.7% | -3.6% | -9.2% | ? | -1.5% | 24.0% | -11.4%
- CCOc1ccc(NC(=O)NNC(=O)c2cc3ccccc3cc2O)cc1
  -17.7% | ? | 7.5% | / | / | / | ? | /
- Cc1c(NC(=O)c2c(O)c3ccccc3n(C)c2=O)c(=O)n(-c2ccccc2)n1C
  -1.6% | 1.7% | 12.7% | ? | / | / | 0.4% | 1.9%[46.1 µM]
- O=C(CCc1ccccc1)NC1CC(=O)N(c2cccc(F)c2)C1 (stereo not given)
  -14.0% | / | / | / | 5.2% | 0.2% | / | 14.6%[46.1 µM]
- N#Cc1c(N)oc(-c2ccccc2)c1-c1ccccc1
  0.0% | -3.3% | -13.8% | -10.8% | -12.3% | -5.6% | 0.6% | 5.6%
- Cc1ccc(C)c(SCC(=O)OCC(=O)Nc2ccc(S(=O)(=O)N3CCOCC3)cc2)c1
  / | -12.0% | 13.9% | -1.0%&-16.1% | ? | -10.7% | -0.7% | -3.5%
- CCC(C)(C)NC(=O)C(c1ccccc1F)N(Cc1ccco1)C(=O)c1csnn1 (stereo not given)
  -4.3% | -6.2% | 22.5% | -1.6% | 6.5% | 1.4% | 0.6% | 0.8%
- CCOC(=O)c1c(C)[nH]c(C(=O)COC(=O)c2ccco2)c1C
  67.1%[activator] | / | -7.7% | 22.0% | / | / | -6.3% | ?
- COCCCN1CN(Cc2ccco2)CNC1=S
  -4.9% | 1.3% | 5.8% | 7.4%[46.1 µM] | / | / | -1.0% | ?
- COc1cc(OC)c(OC)cc1/C=N/NC(=O)c1cc(-c2cccn2C)n[nH]1
  -1.3% | -0.6% | 6.0%[3.69 µM] | -9.4% | ? | -2.2% | -0.5% | -6.5%
- Cc1cc(C)cc(NC(=S)NC2CC3CCCC(C2)N3CC(C)C)c1 (stereo not given)
  15.8% | ? | -0.4% | / | / | / | -1.4% | /
- CCOC(=O)c1ccc(NC(=O)C2CCN(S(=O)(=O)c3ccc(C)cc3)CC2)cc1
  -20.1% | / | / | 35.3%[46.1 µM] | 6.9% | -6.1% | / | 5.6%[46.1 µM]
- CC(=O)OC1(Cc2ccccc2)CN2CCC1c1ccccc12 (stereo not given)
  -27.4% | -21.3% | 21.7% | -6.4% | 11.3% | 4.2% | ? | 9.3%
- O=C(Nc1ccc(-c2nc3cccnc3s2)cc1)c1cccnc1Cl
  2.9% | 0.2% | 20.4% | ? | / | / | -0.6% | 3.55µM*
- N#CCO/N=C/C(=O)Nc1ccc(F)cc1F
  -4.9% | 4.4% | -12.7% | 16.9%[46.1 µM] | / | / | 0.0% | 0.8%[46.1 µM]
- Cc1ccc(C)c(S(=O)(=O)N2CCN(C(=O)[C@H](Cc3ccccc3)NC(=O)c3ccco3)CC2)c1
  -23.1% | / | 2.0% | -26.8%[46.1 µM] | / | / | -1.0% | -22.7%[46.1 µM]
- COc1cccc2c(=O)n(CC(=O)Nc3ccc(F)cc3F)ccc12
  -1.0% | -13.1% | 3.3% | / | -5.0% | -2.7% | 3.1% | /
- O=C(COc1ccccc1)Nc1sc2c(c1C(=O)NCc1cccnc1)CCCC2
  / | 27.9% | 2.0% | ? | -18.4% | -3.1% | -5.6% | ?
- S=c1[nH]nc(Cn2nnc3ccccc32)n1-c1ccc(Cl)cc1
  8.9% | 2.5% | -8.8% | / | / | / | 0.1% | /
- CCOc1ccc(NC(=O)C(=O)N/N=C/c2ccccc2F)cc1
  -4.2% | / | -12.0% | -10.7%[46.1 µM] | / | / | 0.6% | 10.2%
- Cc1ccc(C)c(S(=O)(=O)N/N=C/c2ccc(C(=O)O)cc2)c1
  105.6%[activator] | 1.7% | -10.3% | ? | 2.8% | -2.8% | -2.2% | -8.8%
- COc1ccc(OC)c(/C=N/NC(=O)CCc2c(C)n[nH]c2C)c1
  1.2% | -0.2% | 12.2% | / | / | / | 0.4% | /
- CCN(CC)CCNc1ccc(Cl)cc1[N+](=O)[O-]
  -16.0% | / | 0.0% | 2.7% | / | / | / | 11.5%
- CCOc1cccc2sc(NC(=O)c3ccc(S(=O)(=O)N4CCc5ccccc54)cc3)nc12
  -5.4% | / | / | / | ? | -1.0% | / | ?
- O=C(O)COc1ccc(Nc2ccccc2)cc1
  -1.7% | / | -6.3% | -7.6%[46.1 µM] | / | / | -2.6% | 8.1%
- COC(=O)C1=C(CSc2nnnn2C)NC(=O)NC1c1cc(C)ccc1C (stereo not given)
  ? | 6.2% | -0.5% | 4.1%[46.1 µM] | -6.8% | 3.2% | 3.3% | -25.7%
- CC(C)NCCCCOc1ccccc1-c1ccccc1
  / | 0.0% | / | ? | -1.9% | 0.4% | -11.4% | ?
- COc1cc(CCC(=O)Nc2ccc(Cl)c(C(F)(F)F)c2)cc(OC)c1OC
  -5.7% | -19.2% | 4.6% | ? | 30.0% | -10.7% | -2.9% | -5.1%
- Cc1ccc(S(=O)(=O)NC(=O)c2cccn2C)cc1
  33.4%[activator] | 11.5% | -0.7% | -1.0% | -4.0% | 4.0% | -0.2% | -2.5%
- Cc1cccc(-n2[nH]c(C)c(C=Nc3ccc4[nH]c(=O)[nH]c4c3)c2=O)c1
  -15.7% | 4.3% | 5.9% | ? | ? | -1.7% | 6.6% | 3.7%
- O=C(/C=C/c1ccc([N+](=O)[O-])cc1)NCc1ccccn1
  -16.1% | 11.2% | 4.5% | 23.8% | 5.1% | -7.2% | 22.4% | 11.0%
- COc1ccc(OCC(=O)NCCNC(=O)c2ccccn2)cc1
  -2.0% | -0.9% | -8.3% | 14.8%[46.1 µM] | / | / | -2.1% | -8.2%[46.1 µM]
- CCCN1c2cccc3cccc(c23)S1(=O)=O
  -8.6% | -4.5% | -15.3% | 25.5% | -6.0% | -0.7% | -3.9% | 5.1%
- CCOc1ccccc1NC(=O)Cn1c(=O)n(CCCC(=O)NCCc2ccc(C)cc2)c(=O)c2ccccc21
  -17.1% | / | / | -22.5%[46.1 µM] | 10.5% | -2.3% | / | 2.8%[46.1 µM]
- Cc1nc(-n2nc(C)c(Cc3ccccc3Cl)c2C)sc1C(=O)Nc1ccccc1F
  -25.1% | / | / | 12.9%[46.1 µM] | -10.7% | -0.9% | / | -16.2%[46.1 µM]
- Cc1cc(C)cc(OCCCCn2cncn2)c1
  -13.1% | -4.5% | -16.3% | 18.3%[46.1 µM] | / | / | 1.5% | 15.0%[46.1 µM]
- COC(=O)C1CCN(C(=O)COC(=O)c2cc(S(=O)(=O)N3CCOCC3)ccc2C)CC1
  -2.6% | / | 13.4% | 7.3% | / | / | -3.5% | -5.4%
- CCOC(=O)c1cc(-c2ccc(OC)cc2)n(CCC(=O)NCCc2ccccc2)c1C
  30.7%[activator] | / | / | / | ? | -4.5% | / | -14.0%[46.1 µM]
- Cc1ccc2sc(NNC(=O)c3cc(-c4cccs4)nc4ccccc34)nc2c1C
  / | -7.5% | / | 18.1% | 10µM* | 0.3% | 15.7% | -1.3%
- C=C(C)Cn1c(C)cc(C)c(S(=O)(=O)c2cccc(C)c2)c1=O
  -16.2% | 2.4% | 38.1% | 20.6%[46.1 µM] | / | / | -0.4% | 9.6%
- O=C(NCc1ccc(F)cc1)C(=O)NCC(c1ccc2c(c1)OCO2)N1CCOCC1 (stereo not given)
  0.0% | / | / | / | -5.5% | -0.7% | / | 4.7%[46.1 µM]
- CCOc1ccc(Cc2nnc(SCC(=O)Nc3ccc(C(C)=O)cc3)[nH]c2=O)cc1
  -3.1% | / | 7.6% | 16.3% | / | / | -3.3% | -1.4%
- O=C(CSc1nnc(Cc2cccs2)n1Cc1ccco1)Nc1ccc(Br)cc1
  12.6% | -96.1% | 4.8% | 1.0%&1.0% | -15.6% | -11.1% | -6.2% | -0.6%
- COc1ccc(S(=O)(=O)NCC(=O)Nc2cccc(C)c2C)cc1OC
  22.7% | -2.9% | 1.8% | 15.7% | / | / | -2.2% | -3.3%
- CCOC(=O)c1ccc(NC(=O)Nc2cc3c(cc2N2CCCCC2)n(CC)c(=O)n3CC)cc1
  -28.5% | / | / | ? | 1.0% | -5.3% | / | ?
- NC(=O)C1Cc2ccccc2CN1S(=O)(=O)c1cccs1 (stereo not given)
  -11.7% | / | -5.3% | -6.4%[46.1 µM] | / | / | -0.4% | 1.9%[46.1 µM]
- Cc1ccc(OCC(=O)N/N=C/C=C/c2ccco2)cc1
  10.6% | -5.2% | -12.2% | -2.7% | -17.3% | -9.7% | -1.7% | 14.1%
- Cc1cccc(NC(=O)c2ccc(N3C(=O)C4CCCCC4C3=O)cc2)c1C (stereo not given)
  -1.7% | -8.7% | -1.5% | / | / | / | -0.7% | /
- Nc1c(-c2ccc(Cl)cc2)cnn1C1CCS(=O)(=O)C1 (stereo not given)
  0.0% | 13.9% | -2.3% | 15.6% | -5.0% | 5.2% | 18.0% | 18.7%
- CC(C)(CC(=O)O)CC(=O)N1CCCN(c2nccc(C(F)(F)F)n2)CC1
  -11.8% | 9.4% | 13.2% | / | / | / | 0.0% | /
